Bioassay records deposited in PubChem BioAssay by several laboratories.
HSV augment: increases HSV replication in cells | HSV replication augmentation in cells, fold increase | maximum fold increase | hit rate 0.005% among 220,000 | AID 1956;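 active = peak rise of 1.5-fold or more in the series; tested in PC3 cells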;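 also: first round at 10 µM; read as green reporter fluorescence; hits show the peak of a series up to 25 µM; 1 = signal of infected wells without compound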
RGS16-Gao: regulators of human RGS16-Galphao interaction; O15492+P09471; AID 1441; hit rate 0.38% among 220,000; binding response (% of control), % at 10 µM; bead-based flow cytometry RGS16-Galphao binding, fluorescence; actives lie on both sides;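 active = below 25% or above 175%, edge rows of some plates excepted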;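 also: Galphao activated by GDP with aluminum fluoride before binding; 100% = wells without compound and 0% = beads without RGS; some results beyond the cut were filed as inactive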
PKD1 inh: blocks activity of human protein kinase D1 | PKD1 kinase fluorescence polarization assay | inhibition, %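 (about 10 µM by stock and volumes)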 | hit rate 0.056% among 200,000;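 active = inhibition of 50% or more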;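 also: controls were vehicle for no effect and a reference inhibitor for full effect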
Target sequence (Q15139 whole entry, looked up): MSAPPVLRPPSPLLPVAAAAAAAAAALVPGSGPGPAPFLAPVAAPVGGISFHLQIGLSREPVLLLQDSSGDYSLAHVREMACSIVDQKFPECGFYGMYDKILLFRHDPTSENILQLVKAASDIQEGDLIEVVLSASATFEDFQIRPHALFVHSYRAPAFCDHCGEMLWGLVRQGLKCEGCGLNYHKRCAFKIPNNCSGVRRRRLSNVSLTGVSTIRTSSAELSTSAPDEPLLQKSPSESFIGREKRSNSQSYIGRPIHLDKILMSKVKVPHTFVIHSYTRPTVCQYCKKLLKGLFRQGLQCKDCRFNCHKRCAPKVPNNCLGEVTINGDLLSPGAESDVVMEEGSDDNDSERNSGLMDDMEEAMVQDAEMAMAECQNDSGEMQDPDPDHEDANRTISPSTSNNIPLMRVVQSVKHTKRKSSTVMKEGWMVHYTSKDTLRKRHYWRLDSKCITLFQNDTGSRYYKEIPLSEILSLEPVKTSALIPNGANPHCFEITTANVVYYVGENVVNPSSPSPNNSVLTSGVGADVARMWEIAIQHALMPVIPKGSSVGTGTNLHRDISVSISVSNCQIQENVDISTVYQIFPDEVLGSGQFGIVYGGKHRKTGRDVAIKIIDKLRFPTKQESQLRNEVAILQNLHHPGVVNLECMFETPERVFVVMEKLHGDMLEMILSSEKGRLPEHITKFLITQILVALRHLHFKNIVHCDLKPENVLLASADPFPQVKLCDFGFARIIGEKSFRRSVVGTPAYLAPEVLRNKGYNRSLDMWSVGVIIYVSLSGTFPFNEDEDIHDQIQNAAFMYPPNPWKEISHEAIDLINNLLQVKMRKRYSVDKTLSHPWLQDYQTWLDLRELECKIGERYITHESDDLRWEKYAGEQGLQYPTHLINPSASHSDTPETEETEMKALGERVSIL
GALR2 agonist: agonists of human galanin receptor 2 (GALR2) | O43603 | GALR2-expressing cells, agonist activation read-out | activation, %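 (tested at 5 µM)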 | hit rate 0.48% among 140,000;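 active = above mean plus 3 SD of all compounds, about 5% in these data, not always enough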;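 also: 0% = vehicle buffer wells and 100% = reference agonist at full effect; tested in CHO reporter cells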
Insulin prom inh: TRM-6 insulin promoter activity inhibition; TRM-6 cells (human fetal islet line), insulin promoter-eGFP reporter, imaging; reporter expression induced with tamoxifen; AID 1273; inhibition, % at 2 µM; hit rate 0.9% among 130,000;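 active = inhibition above the mean plus 3 SD, with well images judged a real hit on visual review, cut at about 60% in these data, passing the limit was not always enough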
Insulin prom inh cell count: second read-out of Insulin prom inh, no call of its own (marks repeat the call); normalized cell count, %; measured here: cell count, toxicity; reference of the scale not given here;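 cells exposed to compound for 48 h; stained nuclei by imaging scaled within each plate; lower means fewer cells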
HSV augment primary fold: recorded beside HSV augment, whose call it bears; fold increase; compound at 10 µM; measured here: primary screen fold increase 10 uM; tested in PC3 cells;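 GFP signal in the first replicate; 1 = infected wells without compound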
Active calls of the source: *; i = inactive; · = not tested or not shown; & = joins results of further samples. Rows were taken by chance. Share with any hit: about 1.1%.

Compound	HSV augment	HSV augment primary fold	RGS16-Gao	PKD1 inh	GALR2 agonist	Insulin prom inh	Insulin prom inh cell count
CN(C)c1ccc(P(=O)(OCc2ccccc2)C(O)c2ccccc2)cc1 (stereo unspecified)	i	1	107	·	·	·	·
CCC(C)[C@H](NC(=O)NCc1cccc(OC)c1)C(=O)O (stereo partly specified)	i	0.85	88	-17	-2.0	·	·
O=C(CN1C(=O)CSc2ccc(S(=O)(=O)N3CCCCC3)cc21)NCc1cccnc1	i	0.99	97	3	-2.1	·	·
COc1ccccc1NS(=O)(=O)c1cc(NC(=O)c2cc(=O)[nH]c3ccccc23)ccc1N1CCOCC1	i	0.89	101	·	·	·	·
Cc1ccccc1CSc1nnc(-c2ccccn2)n1N	i	0.89	113	2	-0.2	-94	95
CC(=O)c1c(C)[nH]c(C(=O)OCC(=O)N(C)C)c1C	i	1.1	82	-7	-2.4	32	129
Cc1ccc2c(c1)C(=O)c1ccccc1CS2=O (stereo unspecified)	i	0.9	104	-5	0.1	-67	81
CCOC(=O)C1CCCN(C2CC(=O)N(c3ccc(C(C)C)cc3)C2=O)C1 (stereo unspecified)	i	0.87	103	-5	·	·	·
Cc1ccc(S(=O)(=O)NC2=NCN(CCOC(=O)c3ccc([N+](=O)[O-])cc3)CN2)cc1	i	1	107	-2	-0.4	-10	130
Fc1cccc(C2CCCCN2Cc2nc(C3CC3)no2)c1 (stereo unspecified)	i	1	114	-3	·	·	·
O=C(Cc1cc(=O)[nH][nH]1)N/N=C/c1c(Cl)cccc1Cl	i	0.94&0.98	95&99	-6&-1	-2.2&0.4	·	·
Cc1ccc(OCC(=O)Nc2ccc(S(=O)(=O)Nc3ccccn3)cc2)cc1C	i	0.87	70	-3	·	·	·
Cc1cccc2c1N(C(=O)CN1C(=O)c3ccccc3C1=O)C(C)(C)c1ssc(=S)c1-2	i	0.85	108	-2	-2.3	0	80
COc1ccc2c(c1)c(=O)c(C(=O)c1ccc(Cl)cc1)cn2CC(=O)Nc1ccc(F)cc1	·	·	83	-2	-2.6	20	137
c1ccc(-c2c[n+]3c(n2-c2ccccc2)SCC3)cc1	i	1.2	102	·	·	·	·
Cc1ccc(C(NC(N)=O)c2ccccc2)cc1 (stereo unspecified)	i	0.72	101	5	-2.1	-37	60
Cc1ccc([N+](=O)[O-])c(NC2OC(CO)C(O)C2O)c1 (stereo unspecified)	i	1.1	87	9	·	·	·
COCCn1c(C)c(C(=O)O)sc1=S	i	0.91	112	7	-0.1	16	118
CCOC(=O)c1c(NCCN(C)C)c2ccccc2[nH]c1=O	i	1	99	·	·	·	·
O=C(CCCCCN1C(=O)c2cccc3cccc(c23)C1=O)NC1CCS(=O)(=O)C1 (stereo unspecified)	i	0.83	98	·	·	·	·

Continued, starting with the last two of the part before.
Compound	HSV augment	HSV augment primary fold	RGS16-Gao	PKD1 inh	GALR2 agonist	Insulin prom inh	Insulin prom inh cell count
CCOC(=O)c1c(NCCN(C)C)c2ccccc2[nH]c1=O	i	1	99	·	·	·	·
O=C(CCCCCN1C(=O)c2cccc3cccc(c23)C1=O)NC1CCS(=O)(=O)C1 (stereo unspecified)	i	0.83	98	·	·	·	·
O=Cc1ccc(-c2cc(Cl)ccc2Cl)[nH]1	i	1.2	94	6	·	-147	21
O=[N+]([O-])/C(C(Cl)=C(Cl)Cl)=C(\Nc1ccc(F)cc1)n1cncn1	i	1.1	47	0	-1.4	-6	122
COC(=O)c1ccc(NC(=O)CN2CCN(c3ccccn3)CC2)cc1	i	0.97	101	3	·	·	·
CC(NC(=O)COC(=O)/C=C/c1ccco1)c1ccccc1 (stereo unspecified)	i	1.2	100	0	·	·	·
CCOC(=O)c1c(NC(=S)NCC2CCCO2)sc(C)c1C (stereo unspecified)	i	0.92	106	0	·	17	28
CCCCC/C=N\NC(=O)Cc1ccc([N+](=O)[O-])cc1	i	1.1	114	-6	-1.1	·	·
CCc1cc(=O)oc2cc(OCc3nn[nH]n3)ccc12	i	1.1	106	-10	-0.3	·	·
CCOC(=O)c1ccc(N/C=C\C(=O)c2cccc(OC)c2)cc1	i	0.95	99	2	0.5	-11	126
COc1cc(COCC(O)CN2CCOCC2)cc(OC)c1OC (stereo unspecified)	i	0.79	98	-9	-1.9	·	·
CC(C)C(=O)Nc1ccc(N2CCCC2)c(Cl)c1	i	1	104	-5	·	-33	130
CCOC(=O)C1=C(C)NC(C)=C(C(=O)OCC)C1c1cc(N)ccc1OC(F)F	i	0.92	105	1	-0.7	67	70
O=C(NCCCN1CCCCC1)c1ccc2c(=O)n(CCc3ccccc3)c(=O)[nH]c2c1	·	·	98	0	-1.9	·	·
O=C(CC(NS(=O)(=O)c1ccc(Cl)cc1)c1ccco1)NCc1ccco1 (stereo unspecified)	·	·	91	7	-1.5	·	·
CCNC(=O)CN(c1ccccc1OC)S(=O)(=O)c1cccs1	i	1	101	-3	-0.1	25	87
CC(=O)Nc1cc(-c2nn(C)c(=O)c3ccccc23)ccc1N1CCCCC1	i	0.91	98	9	-1.3	·	·
Cc1onc(-c2ccccc2Cl)c1C(=O)N1CCN(c2ccccc2)CC1	i	0.87	106	-7	-0.5	-78	151
Cc1ccc(OCCCN2CCOCC2)c([N+](=O)[O-])c1	i	1.1	113	-11	-0.9	0	148
COc1ccc(CN2CCN(Cc3csc(C(C)=O)c3)CC2CCO)c(C)c1C (stereo unspecified)	i	1.3	105	7	·	-5	40
CCN(CC)c1nc(Oc2ccc(C(=O)OC)cc2)nc(N2CCOCC2)n1	i	0.83	103	2	·	·	·
O=C(Nc1ccccc1)N1CC=C(c2ccc(F)cc2)CC1	i	0.95	100	-6	-1.2	·	·
O=C(CC1(O)C(=O)N(Cc2cccc3ccccc23)c2ccccc21)c1cccnc1 (stereo unspecified)	i	0.95	98	3	0.8	4	85
Cc1ccc(-c2nc3cc(N)ccc3o2)cc1	·	·	58	-5	-0.6	19	51
COc1cccc(C2C=C(Nc3ccccc3)C(=O)N2c2ccccc2)c1 (stereo unspecified)	i	0.93	88	-9	0.3	-36	178
CCCCOc1ccc(-c2nnn(C(C)C(=O)OCC)n2)cc1 (stereo unspecified)	i	0.77	102	-8	-3.2	-86	88
CCOC(=O)Cc1csc(NC(=O)c2ccc(Br)o2)n1	i	1.1	104	1	-2.3	43	146
O=C(CN1C(=O)NC2(CCCCCC2)C1=O)N1CCN(S(=O)(=O)c2ccccc2)CC1	i	0.96	99	-1	·	-29	142
Cc1ccc(-c2nnc(SCC(=O)Nc3nccs3)n2N)cc1	i	0.92	104	-9	-3.4	50	68
O=C(O)C1CCCN1C(=O)OCc1ccccc1 (stereo unspecified)	i	0.89	96	2	-0.4	-50	103
COc1cc(NC(=O)CN(C)S(=O)(=O)c2ccc3c(c2)CCC(=O)N3)cc(OC)c1	i	0.95	99	-12	-2.1	·	·
COc1ccc(N2CCN(C(=O)c3cc4c(-c5ccc(Cl)cc5)nn(C)c4s3)CC2)cc1	i	0.9	105	1	-1.8	·	·
Cc1ccc(S(=O)(=O)n2nc(OC(=O)C3CCCCC3)cc2N)cc1	i	0.92	99	1	-0.3	21	95
CCO[C@@H]1OC(C(=O)N2CCCCCCC2)=C[C@H](C2CCCCC2)[C@H]1CCCO	·	·	94	3	·	·	·
CCN(CC)c1nc(-c2ccccn2)nc(-c2ccccc2)c1C#N	i	0.59	92	-3	·	·	·
O=C(NN=C1C2CC3CC(C2)CC1C3)c1cccc(S(=O)(=O)N2CCOCC2)c1	i	0.94	109	1	-0.7	4	88
CCSc1nc(-c2ccccc2)c2cc(Cl)ccc2n1	i	1.1	101	2	-1.8	39	115
CCCc1cc(C(=O)NC2CCCC2)no1	i	0.73	101	-6	-2.7	·	·
COc1ccccc1N1CCN(C(=O)Cn2cnc3c2c(=O)n(C)c(=O)n3C)CC1	i	1.1	103	·	·	·	·
COC(=O)c1cc(C)cc(=O)o1	i	0.91	99	·	·	·	·
Cn1nnnc1Sc1ccc(C(=O)O)cc1[N+](=O)[O-]	i	1.2	102	·	·	·	·
COc1cccc(-c2cc(C(F)(F)F)nc(-n3cc(C)cn3)n2)c1	i	1	99	-4	·	·	·
CCOC(=O)CCc1c(C)nc2c(c(C)nn2C(C)(C)C)c1C	i	0.74	94	6	-1.5	·	·
O=C(OCn1nnc2ccccc2c1=O)c1cccnc1	i	0.95	101	-3	-0.2	36	110
COC(=O)CNC(=O)COC(=O)c1ccc(OC)c([N+](=O)[O-])c1	i	0.97	95	1	0.8	27	116
Cc1ccc2nc(NC(=O)C(NS(=O)(=O)c3cccc4nsnc34)C(C)C)sc2c1 (stereo unspecified)	i	0.91	101	-4	-0.8	·	·
CCn1c(SCC(=O)O)nc2sc3c(c2c1=O)CCC3	i	1	104	-7	0.3	-34	96
Cc1c(NC(=O)C2(C)CCCCC2)c(=O)n(-c2ccccc2)n1C	i	1.1	106	-10	-1.5	·	·
COc1cc2c(cc1OC)[C@H](Cc1ccc(O)cc1)NCC2	i	0.86	107	-3	-1.3	14	116
O=C(CC1C(=O)NCCN1Cc1ccc(Cl)c(F)c1)NCC1CCOCC1 (stereo unspecified)	i	0.96	101	·	·	·	·
Nc1ccc(S(=O)(=O)N2CCCc3ccccc32)cc1	i	0.94	101	1	-4.1	·	·
Fc1cccc(NC(=S)NCc2ccccn2)c1	i	1	20	-11	0.3	-22	101

Further records.
Compound	HSV augment	HSV augment primary fold	RGS16-Gao	PKD1 inh	GALR2 agonist	Insulin prom inh	Insulin prom inh cell count
Cc1cc(NC(=O)CCOc2ccc(F)cc2)no1	i	0.97	100	·	·	·	·
COc1ccccc1N1CCN(C(=O)NC23CC4CC(CC(C4)C2)C3)CC1	i	0.98	105	-5	·	·	·
O=C(NC(c1ccccc1)c1ccccc1)N1CCN(CCO)CC1	i	0.79	111	-3	0.2	-30	109
Cc1c(N2C(=O)CS/C2=N\N=C\c2ccc(Cl)cc2)c(=O)n(-c2ccccc2)n1C	i	0.9	105	-10	-1.1	13	59
O=C(COc1ccc2c(C(F)(F)F)cc(=O)oc2c1)NCc1cccs1	i	1	99	0	-0.5	50	174
Cc1nc(-c2nnc(SCC(=O)Nc3cc(C(F)(F)F)cc(C(F)(F)F)c3)n2C)cs1	i	1.1	99	·	·	·	·
O=C(Nc1ccc(F)c(F)c1)c1ccc(F)c(S(=O)(=O)N2CCC3(CC2)OCCO3)c1	i	0.82	98	5	·	21	160
Cc1ccc(N2CC(=O)Nc3c(sc4nc(C)cc(C)c34)C2=O)cc1	i	1	104	·	·	·	·
COC(=O)C1=C(C)Nc2ncnn2C1c1ccc(OCc2ccccc2)cc1 (stereo unspecified)	i	1.1	102	-11	104*	-19	111
CC1CCC(C(C)C)C(OCC(O)CN2CCOCC2)C1 (stereo unspecified)	i	0.96	102	-8	-1.1	-79	90
Cc1ccc(NC(=O)C2=C(c3ccccc3)S(=O)(=O)CCS2(=O)=O)cc1	i	0.8	96	-4	·	-52	17
